VDR inhibitor: inhibitors of human vitamin D receptor. P11473. VDR-SRC2-3 peptide fluorescence polarization, 2 h. Potency, µM, inactives show max response, negative = inhibition, usual class: inhibitors. 0.93% of 400,000 active. AID 504847; active = well fitted inhibition curve with a large enough effect; inconclusive = small, poorly fitted or top-dose-only effect, or another doubt; inactive = no such curve, though single readings can be large or run the other way; note: series mostly up to about 120 µM
Target sequence (P11473 whole entry, looked up): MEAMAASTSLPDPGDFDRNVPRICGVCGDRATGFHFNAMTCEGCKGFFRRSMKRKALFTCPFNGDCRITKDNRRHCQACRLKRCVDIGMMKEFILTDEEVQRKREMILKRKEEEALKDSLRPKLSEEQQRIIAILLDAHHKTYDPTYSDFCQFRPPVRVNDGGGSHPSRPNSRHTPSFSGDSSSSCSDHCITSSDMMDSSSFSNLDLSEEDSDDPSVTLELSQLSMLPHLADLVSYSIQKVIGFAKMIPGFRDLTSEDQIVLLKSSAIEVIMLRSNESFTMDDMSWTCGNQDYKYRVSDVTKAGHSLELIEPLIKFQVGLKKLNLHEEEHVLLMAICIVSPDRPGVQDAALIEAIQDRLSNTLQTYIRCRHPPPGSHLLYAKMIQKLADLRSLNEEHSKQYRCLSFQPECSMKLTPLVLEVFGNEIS
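FP read-out; VDR + SRC2-3 coactivator peptide; 23 nl compound by pintool; 2 h RT incubation; reagents held at 4 deg C, protected from light.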
* marks the source's active call; other numbers are inactive results; ? = inconclusive; & = joins results of further samples; [ ] = remark or other dose. % is set by controls: 0 for no effect and ±100 for the full control effect; potency is the fitted concentration of half-maximal effect. Not all compounds are listed; rates above refer to the full screens.

mol,VDR inhibitor
Cc1ccc(NC(=O)c2nc[nH]c2C(=O)N[C@@H](C)C(=O)OC(C)(C)C)cc1,-11%
CCOc1cc(/C=N/NC(=O)c2ccncc2)ccc1OC(=O)c1ccccc1,24%
CCN(Cc1nc(-c2ccccc2)no1)C(=O)COc1cccc(OC)c1,3%
CCN[C@@H]1C[C@H](C)S(=O)(=O)c2sc(S(N)(=O)=O)cc21,-1%
CN1c2ccccc2C(=O)C(=C2SCCCS2)S1(=O)=O,-8%
COc1ccccc1C(=O)OCC(=O)NC12CC3CC(CC(C3)C1)C2,9%
COc1ccccc1-c1nnc(SC(C)C(=O)Nc2ccc(C(N)=O)cc2)o1 (centres undefined),-9%
Cc1ccccc1N/C(SCc1cccc(Br)c1)=C(/C#N)C(N)=O,-14%

Next results follow.
mol,VDR inhibitor
CC1CC(=O)N(c2ccc(C(C)C)cc2)C(=O)C1,2%
O=C(Nc1ccnn1C1CCN(C(=O)c2c(F)cccc2F)CC1)C1CC1,-10%
O=[N+]([O-])c1ccccc1/C=N/Nc1nnc(-c2ccccc2)c(-c2ccccc2)n1,-22%
CC(C)(C)[C@@H]1COC(=O)[C@@H](NC(=O)OCC2c3ccccc3-c3ccccc32)C/C=C\C[C@@H](CC(=O)NCCO)C(=O)N1,20%
CCC1CCCCN1C(=O)CN1C(=O)CSC1=O (centres undefined),-3%
Cc1nc2cc(S(=O)(=O)N(C)C)ccc2n1-c1ccccc1,-10%
Cc1ccc(S(=O)(=O)/N=C(\Nc2cc(C)on2)c2ccc(Cl)cc2)cc1,-7%
CCN(CC)c1ccc(N)cc1,-6%

More records follow.
mol,VDR inhibitor
O=C(c1csc2c1CCCC2)n1cccn1,8%
O=C(CCc1ccccc1)NCc1ccc2c(c1)OCO2,-8%
O=c1c2ccccc2nc(/C=C/c2cccc3ccccc23)n1-c1ccc(F)cc1F,13%
C[C@@H](NC(=O)OC(C)(C)C)c1nnc(S(=O)(=O)Cc2ccccc2)o1,28µM*
CCOC(=O)C1=C(C)NC2=C(C(=O)CC(C)(C)C2)C1c1ccc2c(c1)CCCN2C (centres undefined),3%
Cn1c2c(c(=O)n1-c1ccccc1)CSCC2,-7%
CCN(C(=O)CSc1nnc(Cn2nnc3ccccc32)o1)c1nc(C)cs1,-19%
Cc1ccccc1N1CCN(C2CCCN(C(=O)c3snnc3C)C2)CC1 (centres undefined),1%

Later entries:
mol,VDR inhibitor
CCC1COCCS(=O)(=O)N1Cc1cccc(C(F)(F)F)c1 (centres undefined),8%
C[C@H](NC(=O)c1nc[nH]c1C(=O)NCC(=O)OCc1ccccc1)c1ccccc1,0%
O=C(c1ccc(NC(=S)NCc2ccco2)cc1)N1CCCCC1,4%
Cc1nc(-c2ccc(S(=O)(=O)N3CCOCC3)cc2)cs1,4%
COc1cccc(OCCCCn2c(-c3ccc(Cl)cc3)nc3ccccc3c2=O)c1,-14%
O=C(Cc1cc(=O)oc2cc(O)ccc12)NCC1CCC(C(=O)O)CC1 (centres undefined),16%
Cc1ccc(-c2nc(C)sc2CC(=O)OCC(=O)Nc2ccc(F)c(Cl)c2)cc1,?
O=C(NCCN1CCOCC1)c1cc(Br)ccc1Cl,-2%

Retrieved by compound from the entries so far (five):
mol,VDR inhibitor
O=C(Cc1cc(=O)oc2cc(O)ccc12)NCC1CCC(C(=O)O)CC1 (centres undefined),16%
O=C(NCCN1CCOCC1)c1cc(Br)ccc1Cl,-2%
C[C@H](NC(=O)c1nc[nH]c1C(=O)NCC(=O)OCc1ccccc1)c1ccccc1,0%
Cc1ccc(-c2nc(C)sc2CC(=O)OCC(=O)Nc2ccc(F)c(Cl)c2)cc1,?
COc1cccc(OCCCCn2c(-c3ccc(Cl)cc3)nc3ccccc3c2=O)c1,-14%

New compounds follow.
mol,VDR inhibitor
COc1ccc(OC)c(CNS(=O)(=O)c2ccc3[nH]c4c(c3c2)CCCCC4)c1,-3%
CC1(C)Cc2noc(N)c2C(C)(C)N1OC(=O)c1ccco1,-3%
Cc1ccc(C(=O)c2ccccc2C(=O)OCC(=O)NC(C)(C)C)cc1,-19%
Cn1cccc1CNC(=S)Nc1cc(F)cc(F)c1,-9%
COc1ccc(NC(=O)c2cc(-c3ccc(C)o3)nc3ccccc23)cc1,-4%
CCOc1ccccc1NC(=O)Cn1nnc(C(=O)NCc2cccs2)c1N,-12%&-9%
Cc1cc(=O)nc2c3ccccc3n(CC(=O)NCCCN3CCOCC3)n12,?
N#Cc1ccccc1NC(=O)CC1CCCCC1,6%

Later entries.
mol,VDR inhibitor
O=C(CCc1nc2cccnc2n1Cc1ccccc1)NCc1cccc(Cl)c1,-1%
CN1CCc2c(sc(NC(=O)c3ccc([N+](=O)[O-])o3)c2C(N)=O)C1,3%
COC(=O)c1ccc(NC(=O)C2CCN(S(C)(=O)=O)CC2)cc1,-8%
Cc1cc(OC(C)C(=O)NCC(O)c2ccccc2)c2c(C)c(C)c(=O)oc2c1 (centres undefined),5%
O=C(CSc1ccc2ccccc2n1)N/N=C/c1ccccc1O,51%[activator]
CC(=O)c1cccc(NC(=O)CCS(=O)(=O)c2cc(Br)cc3c2N(C(=O)C2CC2)CC3)c1,-9%
COc1ccc(OC)c(-c2cc(C(=O)NCc3cccs3)no2)c1,3%
O=C(C1CCN(c2nnc(-n3cccc3)s2)CC1)N1CCN(c2cccc(C(F)(F)F)c2)CC1,0%

(more compounds)
mol,VDR inhibitor
N#Cc1c(N2CCOCC2)nc(-c2ccco2)c2c1CCCC2,?
Cc1ccc(S(=O)(=O)N2CCN(C(=O)COC(=O)COc3ccc(Cl)cc3)CC2)c(C)c1,-20%
CC1=C(C(=O)OCC2CCCCC2)C(c2c(F)cccc2Cl)CC(=O)N1 (centres undefined),-8%
COc1ccc(-n2ncc(C(=O)NCc3ccccc3)c2C2CCN(C(=O)OC(C)(C)C)CC2)cc1,-4%
CC(=O)N1N=C(c2ccc(Br)cc2)OC1(C)CC(=O)Nc1ccccc1 (centres undefined),-7%
COc1cc(C(=O)c2cocc2C(=O)c2ccc3c(c2)OCO3)cc(OC)c1OC,-5%
CC(C)c1nnc(NC(=O)COc2ccc3ccccc3c2)s1,4%
Cc1cc(Oc2cnn(C(C)(C)C)c(=O)c2Cl)cc(C(C)C)c1,4%

Part of the list above in order of SMILES length, low to high.
mol,VDR inhibitor
CC(C)c1nnc(NC(=O)COc2ccc3ccccc3c2)s1,4%
Cc1cc(Oc2cnn(C(C)(C)C)c(=O)c2Cl)cc(C(C)C)c1,4%
CC1=C(C(=O)OCC2CCCCC2)C(c2c(F)cccc2Cl)CC(=O)N1 (centres undefined),-8%
Cc1ccc(S(=O)(=O)N2CCN(C(=O)COC(=O)COc3ccc(Cl)cc3)CC2)c(C)c1,-20%
O=C(C1CCN(c2nnc(-n3cccc3)s2)CC1)N1CCN(c2cccc(C(F)(F)F)c2)CC1,0%
COc1ccc(-n2ncc(C(=O)NCc3ccccc3)c2C2CCN(C(=O)OC(C)(C)C)CC2)cc1,-4%

Continued.
mol,VDR inhibitor
COc1ccc(NC(=O)Cn2cnc3ccc(S(=O)(=O)N4CCC(C)CC4)cc3c2=O)cc1OC,-5%
CCOC(=O)NN1C(=O)c2ccccc2NC1c1ccc(N(C)C)cc1 (centres undefined),-8%
Cc1ccc(Nc2cc(C)c(C#N)c3nc4ccccc4n23)cc1Cl,13%
COc1cccc(CC2(CO)CCCN(Cc3cn[nH]c3-c3ccc(F)cc3)C2)c1 (centres undefined),11%
Cn1cccc1/C=N/n1c(-c2ccc(C(C)(C)C)cc2)n[nH]c1=S,-10%
Oc1ccc(-c2nccs2)cc1,7%
O=C1C[C@@H]2c3c(cccc3CN1Cc1ccccc1)C[C@@H](O)[C@H]2O,6%
O=S(=O)(CCNCc1ccco1)NC1CCCCC1,-6%

Additional results
mol,VDR inhibitor
O=S(=O)(c1ccc(F)cc1)N1CCCN(c2nccc(C(F)(F)F)n2)CC1,-27%
CCCCSc1cc(C)nc2ncnn12,15%
C=C(C)Cn1c(CCCNC(=O)C(C)(C)C)nc2ccccc21,12%
CC(NC(=O)c1cc(-c2ccncc2)nc2ccc(Br)cc12)C1CCCO1 (centres undefined),-17%
Cc1cc2ccccn2c1C(=O)c1ccccc1Br,-1%
CC(C)(CC(=O)OCC(=O)Nc1ccccc1F)CC1=NS(=O)(=O)c2ccccc2N1,-15%&9%
CSC1=NCCN1C(=O)c1ccc(C)cc1,-9%
COc1cccc(CN2CCN(Cc3cc4ccccc4[nH]3)CC2CCO)c1 (centres undefined),-8%

More records
mol,VDR inhibitor
CCOc1ccccc1NC(=O)Cn1nnc2sc(-c3ccccc3)cc2c1=O,-3%
OC(COCc1ccccc1)CN1CCN(c2ccccc2)CC1 (centres undefined),-4%
CCOC(=O)N1CCN(S(=O)(=O)N(C)C)CC1,5%
CC(C)(C)OC(=O)N(Cc1ccccc1)Cc1ccccc1OCc1cccc(NC(=O)C2CC2)c1,17%
CCc1ccc(-c2cc(C)no2)cc1S(=O)(=O)NCCN1CCC(C)CC1,6%
CCc1ccc(C(C)NC(=O)c2ccc(F)cc2)cc1 (centres undefined),5%
O=C1N(Cc2cccc(Cl)c2)C[C@@H]2C[C@@H](c3cccn3-c3ccccn3)N3CCC[C@@]123,-6%
CN(Cc1nc2ccc(F)cc2[nH]1)Cc1nc(CC2CC2)no1,5%

Next part:
mol,VDR inhibitor
COc1ccccc1-c1nnc(NC(=O)C2=COCCO2)o1,-8%
Cc1cccc(C)c1NC(=O)C[N+](C)(C)CC(O)COc1cccc2ccccc12 (centres undefined),-6%
CC(C)c1ccc(NC(=O)C(c2ccccc2)N2CCOCC2)cc1 (centres undefined),-23%
O=C(Nc1cccc(Cl)c1)ON=C1c2ccccc2-c2ccccc21,17%
CC(C)Sc1nnc(SCC(=O)N(C)C2CCS(=O)(=O)C2)s1 (centres undefined),10%
O=C(CSc1nnc(-c2ccncc2)o1)Nc1ccccc1Cl,-18%
Oc1ccccc1-c1cc(-c2ccco2)[nH]n1,-19%
COc1cc(-c2cc(=O)c3ccccc3o2)ccc1O,-4%

The results go on.
mol,VDR inhibitor
Cc1cc(C2=NNC(=NC3CC3)SC2)c(C)n1-c1ccccc1F,?
CC(Oc1cccc(Cl)c1)C(=O)Nc1cc(S(=O)(=O)N2CCOCC2)ccc1N1CCCCC1 (centres undefined),4%
O=P(c1ccccc1)(c1ccccc1)c1nc(-c2ccc(Cl)cc2)oc1N1CCOCC1,?
COc1ccc(Nc2nnc(SCC(=O)N3CC(=O)Nc4ccccc43)s2)cc1,-4%
Cc1ccc(CNC(=O)C(CC(C)C)OC(=O)c2ccco2)cc1 (centres undefined),-14%
CNc1nc(-c2ccc(N(C)C)cc2)nc2ccccc12,?
CCNc1ccc(S(=O)(=O)N(C)C)cc1NCC(=O)Nc1c(F)cccc1F,-12%
COc1cc(C2=Nc3ccc(Br)cc3C(c3ccccc3)N2CC(=O)NN)cc(OC)c1OC (centres undefined),?

(more compounds)
mol,VDR inhibitor
CN(CC(=O)Nc1ccc(N2CCOCC2)cc1)CC(=O)Nc1ccccc1[N+](=O)[O-],1%
CCOc1ccc2nc(NC(=O)C3CCCO3)sc2c1 (centres undefined),-8%
O=C(Cn1cnnn1)NCc1ccccc1,0%
O=C(NC1CCN(S(=O)(=O)c2ccccc2F)CC1)c1cccnc1,5%
Cc1ccc(OCCC(=O)Nc2ccc(F)c(Cl)c2)cc1,2%
Cc1ccc(NC(=O)c2ccc(COc3ccccc3)o2)nc1,-5%
CSCCC(NC(=O)COc1ccccc1)C(=O)N1CCCC(C(F)(F)F)C1 (centres undefined),6%
c1ccc2c(c1)ncc1cccn12,-11%

(next part)
mol,VDR inhibitor
COc1cc(C(=S)NCc2ccccc2)cc(Br)c1O,50µM*
O=S(=O)(c1ccccc1F)N1CCN(c2nc(-c3cccnc3)nc3ccccc23)CC1,-1%
O=C1C(Cc2ccc(Br)cc2)SC(=Nc2ccccc2)N1c1ccccc1 (centres undefined),-9%
CCc1ccc(NC(=O)CO/N=C(\C)c2cc3ccccc3o2)cc1,9%
O=C(NCC(c1cccs1)N1CCOCC1)c1cc(S(=O)(=O)N2CCOCC2)ccc1Cl (centres undefined),-18%
Cc1c(C(=O)NNc2c(Cl)cccc2Cl)n(C)oc1=O,-14%
O=C(CSc1nnc(C2CC2)n1C1CC1)c1ccc(F)cc1,-1%
CCC1=Nc2cc(C(=O)NCC(C)c3ccccc3)ccc2Sc2ccc(C)cc21 (centres undefined),-12%

Remaining list, next part:
mol,VDR inhibitor
COc1cccc(OC)c1C(=O)Nc1ccc(NC(=O)c2ccco2)cc1,-3%
O=C1NC(=O)C(CC(=O)N(Cc2cccs2)C2(C(=O)NC3CCCC3)CCCCC2)N1 (centres undefined),-5%
O=C(Nc1ccc(NC(=O)c2ccc(S(=O)(=O)c3ccccc3)cc2)cc1)c1ccccc1,0%
COc1ccc(OC)c(NC(=S)NCc2cccs2)c1,-10%
CN(O)/C=C1\C(=O)Nc2ccccc21,2%
Cc1ccc([N+](=O)[O-])cc1S(=O)(=O)n1ccnc1C,?
Cc1ccc(C2CC(c3cccc(C)c3)n3ncnc3N2)cc1 (centres undefined),?
CCCCNCc1cc(OC)c(OCC(N)=O)cc1Br,18%

Remaining list, next part:
mol,VDR inhibitor
Cc1ccc(OCCCn2c(=O)oc3ccccc32)cc1,22%
Cn1c(=O)c2c(ncn2CC(=O)OCC(=O)Nc2cc(Cl)ccc2Cl)n(C)c1=O,?
CC(Sc1nnc2ccccn12)C(=O)Nc1ccc(Cl)cn1 (centres undefined),22%
CCN1CCN(CC(=O)Nc2ccc3c(c2)OCO3)C(=O)C1=O,10%
CCc1ccc(CN(Cc2ccco2)C(=O)COc2ccc(Cl)c(C)c2)cc1,5%
CCN(Cc1ccccc1)C(=O)c1cc2ccc3cccnc3c2[nH]1,-3%
Clc1nc(NC2CCCCC2)c2cn[nH]c2n1,4%
O=C(O)CSCC(=O)N1CCCN(c2nccc(C(F)(F)F)n2)CC1,-3%
